# Vaccinia mCherry: vaccinia inhibition (mCherry reporter). Vaccinia virus mCherry reporter infection, fluorescence; about a quarter of the inactives have no number. Potency, µM (doses to about 36.5 µM), without a hit: at the top dose activity change, negative = inhibition, hits mostly inhibitors. hit rate 0.63% among 310,000; active = well fitted inhibition curve with a large enough effect; inconclusive = small, poorly fitted or top-dose-only effect; inactive = no such curve, though single readings can be large or run the other way; tested in A549 cells; note: nearly all actives have a fitted effect of over 35% in size; inactives centre near -10
# Vaccinia Venus: inhibitors of vaccinia virus (Venus reporter); Vaccinia virus Venus reporter expression, fluorescence; Potency, µM (highest dose often 36.5 µM), for the others: top-dose activity change, negative = inhibition, hits mostly inhibitors; hit rate 0.46% among 330,000; AID 720580; active means well fitted inhibition curve with a large enough effect; inconclusive means small, poorly fitted or top-dose-only effect; inactive means no such curve, though single readings can be large or run the other way; tested in A549 cells; note: nearly all actives have a fitted effect of over 30% in size; inactives centre near -10
# * = called active by the depositor; i = inactive; ? = inconclusive; . = not tested or not shown; [ ] = another dose, or the depositor's remark. % is set by controls: 0 for no effect and ±100 for the full control effect; potency is the fitted concentration of half-maximal effect.
SMILES,Vaccinia mCherry,Vaccinia Venus
COc1ccc(CN2C[C@@H](CO)O[C@@H](n3cnc4c(N5CCOCC5)ncnc43)C2)cc1,i,-12.4%
N#Cc1ccc(OCC(=O)Nc2cccc(S(=O)(=O)NC3=NCCCCC3)c2)cc1,-12.7%,-9.5%
NC(=O)c1nsnc1-c1ccccc1O,-9.1%,-8.0%
C=CC(C)(C)c1c(O)c(CC=C(C)C)c(O)c2c(=O)c3ccc(O)c(O)c3oc12,8.91µM*,?
CC(=O)n1cc([C@@H]2C=C(C(=O)N3CCN(Cc4ccc5c(c4)OCO5)CC3)O[C@H](OCc3ccc(CO)cc3)C2)c2ccccc21,-21.4%,?
NS(=O)(=O)c1cc(C(=O)OCC(=O)NC2CCCCCCC2)ccc1Cl,-18.0%,-10.4%
Cc1nn(Cc2cccc(C(=O)NC3CCCCC3)c2)c(C)c1Cl,.,?
COc1ccccc1/C=N/OCc1cc(C(C)=O)ccc1OC,-14.2%,-4.9%
CC1CCN(S(=O)(=O)c2ccc3c(c2)c(=O)c(C(=O)NCc2cccs2)cn3C)CC1,-10.6%,-7.1%
CC(=O)N1c2ccccc2C(=O)C1N1CCN(c2cccc(Cl)c2)CC1 (configuration not stated),-19.0%,-9.1%
Cn1c(CNC(=O)CSc2n[nH]c(-c3ccccc3)n2)nc2ccccc21,-14.3%,-11.5%
Cc1cccc(NC(=O)c2ccccc2-c2ccccc2)c1,-12.0%,-11.6%
COCCCN1C(=O)c2[nH]nc(-c3ccccc3O)c2C1c1ccc(OC)cc1 (configuration not stated),-9.3%[7.34 µM],-6.7%[7.34 µM]
O=C(NCCCN1CCOCC1)C1CCN(S(=O)(=O)c2cccc(C(F)(F)F)c2)CC1,-24.9%,-12.4%
COc1cccc(NC(=O)CN(C)C(=O)c2c(-c3c(F)cccc3Cl)noc2C)c1,i,-19.9%
Cc1oc(-c2ccccc2Cl)nc1CS(=O)(=O)CC(=O)NC1CCCC1,-20.1%,?
O=C(C[C@H]1C[C@H](C(=O)N2CCOCC2)[C@@]2(CCC3CCCC3)c3[nH]c4ccc(Cl)cc4c3CCN2C1=O)NCCc1ccccn1,-13.0%,?
Cc1ccccc1Cn1c(C)c(C(=O)NCc2ccc(Cl)c(Cl)c2)sc1=O,11.6%,-1.1%
Cc1cc(C)c(C)c(S(=O)(=O)N[C@@H](C)C(=O)OCc2cc(=O)n3cc(Br)ccc3n2)c1C,i,-11.9%
Cc1nnsc1C(=O)NNC(=O)Nc1ccccc1,-15.2%,-1.8%
CCN(CC)c1ccc(/C=C/C2=C3C=CC=CC3NC=C2)cc1 (configuration not stated),38.3%[activator],38.2%[activator]
CC(NC(=O)c1cccc(NC(=O)c2nsc3ccccc23)c1)c1ccccc1 (configuration not stated),-15.4%,-12.8%
Cc1c(NC(=O)c2cc3ccccc3o2)cccc1-n1cnnn1,i,-9.1%
CCC(C)N(C(=O)c1csnn1)C(C(=O)NC1CCCC1)c1c(F)cccc1Cl (configuration not stated),-26.2%,6.3%

# 3 compounds picked at random from the list so far, as already listed:
SMILES,Vaccinia mCherry,Vaccinia Venus
O=C(C[C@H]1C[C@H](C(=O)N2CCOCC2)[C@@]2(CCC3CCCC3)c3[nH]c4ccc(Cl)cc4c3CCN2C1=O)NCCc1ccccn1,-13.0%,?
CCN(CC)c1ccc(/C=C/C2=C3C=CC=CC3NC=C2)cc1 (configuration not stated),38.3%[activator],38.2%[activator]
Cc1cc(C)c(C)c(S(=O)(=O)N[C@@H](C)C(=O)OCc2cc(=O)n3cc(Br)ccc3n2)c1C,i,-11.9%

# Next section:
SMILES,Vaccinia mCherry,Vaccinia Venus
CCC(=O)NC(=S)NNC(=O)c1ccc(NC(=O)c2ccccc2)cc1,-18.3%,-12.3%
COC(=O)c1ccc(CN2C(=O)NC(c3ccccc3)(c3ccccc3)C2=O)o1,-2.4%,-9.3%
N=C1C(c2nc(-c3ccc(Br)cc3)cs2)=C(O)CN1NC(=O)c1ccc([N+](=O)[O-])cc1,-7.0%,-7.6%
CCCc1nc2nc(C)c(NS(=O)(=O)c3ccc(C4CCCCC4)cc3)c(=O)n2[nH]1,-19.1%,-1.4%
CC1(C)C[C@H]2C3=CCC4[C@@]5(C)CC[C@H](O)C(C)(C)C5CC[C@@]4(C)[C@]3(C)[C@@H](O)[C@@H](O)[C@@]2(CO)[C@@H](O)[C@@H]1O (some centres not stated),?,-28.8%
Cc1cc(C)c(S(=O)(=O)N2CCOC2CNC(=O)C(=O)NCCc2c[nH]c3ccccc23)c(C)c1 (configuration not stated),-5.0%,-19.2%
COC(=O)c1ccc(CN2CCN(CC=C(C)C)C(CCO)C2)cc1 (configuration not stated),-9.3%,-3.8%
COCCCNC(=O)CC1C[C@H](C(=O)N2CCOCC2)[C@@]2(CCC3CCCC3)c3[nH]c4ccc(OC)cc4c3CCN2C1=O (some centres not stated),-18.7%,-15.7%
CN1CCN(c2cc(C(F)(F)F)nc(-c3ccccn3)n2)CC1,i,-5.5%
OC1C2CN3CCN(C2)CC1(Cc1ccccc1)C3 (configuration not stated),.,0.0%
COC(=O)c1cc2c(s1)-c1ccccc1CC2,.,-1.9%
CN(C)CC1CCCCC1OC(=O)Cc1ccc(Cl)c([N+](=O)[O-])c1 (configuration not stated),-12.2%,-6.7%
O=C(c1cccc(F)c1)N1CCN(C(=O)C(c2ccccc2)c2ccccc2)CC1,-14.8%,-13.8%
Cc1ccc(/C=N/NC(=O)COc2ccc(Cl)c(C)c2)o1,8.2%,-18.2%
CCC(=O)N1CCc2cc(CNC(=O)C(CC)c3ccccc3)ccc21 (configuration not stated),-13.6%,-13.3%
CCOC1CCCc2oc(-c3ccc(OC)cc3)c(C#CCCO)c21 (configuration not stated),i,2.1%
CC1CCC(NC(=O)C2c3ccccc3C(=O)N2Cc2cccs2)CC1 (configuration not stated),i,-10.2%
CCOC(=O)c1c(C)n(C)c2ccc(OCCN(C)C)cc12,i,-17.2%
CC(C)NC(=O)COc1coc(CN2CCN(C(=O)c3ccco3)CC2)cc1=O,i,-2.4%
O=C(Nc1ccc(Cl)cc1)NC1CCCCC1,-26.7%,-19.0%
CC(=O)Nc1cccc(NC(=O)CSc2nc(=O)n(CCN3CCOCC3)c3c2CCC3)c1,-6.9%,-0.8%
O=C(CCN1C(=O)C2CCCCC2C1=O)NNC(=O)c1cccc(Cl)c1 (configuration not stated),-19.9%,-3.6%
CCCCn1nnnc1C(c1cc2ccccc2o1)N1CCN(C(=O)OCC)CC1 (configuration not stated),-6.2%,-6.5%
NC(=O)c1cc(-c2ccccc2)nc(Oc2ccccc2)n1,-24.9%,-21.8%

# As a working copy, some entries already given.
SMILES,Vaccinia mCherry,Vaccinia Venus
CCOC1CCCc2oc(-c3ccc(OC)cc3)c(C#CCCO)c21 (configuration not stated),i,2.1%
CC1CCC(NC(=O)C2c3ccccc3C(=O)N2Cc2cccs2)CC1 (configuration not stated),i,-10.2%
CCOC(=O)c1c(C)n(C)c2ccc(OCCN(C)C)cc12,i,-17.2%

# (more compounds)
SMILES,Vaccinia mCherry,Vaccinia Venus
Cc1ccc(-n2ncc3c(NCc4ccccc4)ncnc32)cc1,.,-4.6%
O=C(CSc1nc(-c2ccc(F)cc2)cs1)N1CCOCC1,-16.5%,-13.7%
O=C(Nc1ccc(N2CCN(C(=O)c3ccccc3)CC2)cc1)c1cc2ccccc2o1,.,?
CCOC(=O)c1cccc(NC(=O)CCS(=O)(=O)c2ccc3c(c2)CCN3C(=O)CC)c1,-11.1%,-1.0%
O=c1[nH]c(=O)n(C2CC(O)C(CO)O2)cc1Br (configuration not stated),?,-20.2%
O=C(Nc1ccccc1)C1CC(=O)N(C2CCCCC2)C1 (configuration not stated),.,-7.7%
Cc1cc(C(C)(C)C)oc1C(=O)N(CC(=O)NC1CCCC1)Cc1ccc(Cl)cc1,-13.4%,-1.5%
CC(C)(C)NC(=O)NC(=O)CN1c2cccc3cccc(c23)S1(=O)=O,-10.7%,-13.0%
COc1ccc(C(=O)N/C(=C\c2ccc([N+](=O)[O-])cc2)C(=O)NC(CCSC)C(=O)O)cc1 (configuration not stated),-6.3%,-1.4%
O=C(CCC1CCCN(C(=O)c2ccc3[nH]ccc3c2)C1)N1CCN(c2ccccn2)CC1 (configuration not stated),-2.2%,-17.9%
CCCOc1ccc(F)cc1-c1cc(C(=O)NCc2ccc(F)cc2)[nH]n1,-8.7%,-14.5%
CC(=O)Nc1cncc(-c2cccc(C(=O)NCCN(C)C)c2)n1,12.3%,2.1%
C[C@@H]1CCCCO[C@H](CN(C)Cc2ccc3c(c2)OCO3)[C@@H](C)CN([C@H](C)CO)C(=O)c2cc(NC(=O)c3ccccc3)ccc2O1,?,?
CCOC(=O)c1[nH]c2c(c1Cc1ccccc1C)C(=O)CC(c1cc(OC)ccc1OC)C2 (configuration not stated),-10.8%,-19.2%
CCN(CC)c1ccc(NC(=O)C2CCCN(S(=O)(=O)c3ccc4c(c3)oc(=O)n4C)C2)c(C)c1 (configuration not stated),-14.4%,-17.0%
CCNc1nc(N)nc(Oc2ccc(OCC)nn2)n1,i,-6.4%
COc1ccc(NC(=O)C2CCN(C(=O)c3ccccc3)CC2)cc1OC,-13.2%,-9.2%
N#Cc1c(Nc2ccc(F)cc2)sc(C(=O)c2ccc(F)cc2)c1N,-20.1%,-28.2%
CC(C)(C)c1ccc(-c2nnc(SCC(=O)NC3CCS(=O)(=O)C3)n2N)cc1 (configuration not stated),-10.9%,4.4%
Cc1cc2cc(CNC(=O)c3cccc([N+](=O)[O-])c3)ccc2n1C,-6.9%,-13.9%
CC(C)(C)c1ccc(OCC(O)CN2CCCC2)cc1 (configuration not stated),-6.3%,2.5%
O=C(CCS(=O)(=O)c1cc(Br)cc2c1N(C(=O)C1CC1)CC2)NCC1CCCO1 (configuration not stated),.,-14.3%
O=C(CC1C(=O)N(c2ccccc2)C(=O)N1CCc1cccs1)Nc1ccc(Cl)cc1 (configuration not stated),5.9%,-15.7%
COc1ccc(-n2c(=O)c3c4c(sc3n(Cc3cc(C)ccc3C)c2=O)CN(C(C)=O)CC4)c(OC)c1,?,-19.2%
COc1ccc(C(=O)Nc2ccccc2C(=O)OCc2cc(=O)n3nc(C4CC4)sc3n2)cc1,-14.6%,-12.3%
CCOC(OCC)P(=O)(O)CCCNCc1ccc(Cl)c(Cl)c1,-12.1%,-10.0%
O=[N+]([O-])c1ncccc1OCc1ccc(-c2ccccc2)cc1,-6.6%,-4.4%
CCn1c(SCC(=O)NCc2ccccc2)nnc1-c1cccnc1,i,-12.5%
CCCCNC(=O)C(CC)Sc1nnc(-c2ccc(F)cc2)c(-c2ccc(F)cc2)n1 (configuration not stated),-25.1%,-25.7%
CC(C)(C)c1ccc(S(=O)(=O)N2CCN(C(=O)C3CCC3)CC2)cc1,i,-13.4%
C[C@H]1COC(=O)[C@H](NC(=O)OCC2c3ccccc3-c3ccccc32)C/C=C\C[C@H](CC(=O)N(CCO)Cc2ccccc2)C(=O)N1,-21.4%,-19.3%
CCOc1cc2c(cc1OCC)C(c1ccc(OC)c(OC)c1)N(c1ccc(C(=O)O)cc1)C(=O)C2 (configuration not stated),-12.2%,-11.6%
CCCNC(=O)NC(=O)CSc1nnc(-c2c[nH]c3ccccc23)o1,-12.5%,-0.6%
C=CCN(c1ccc(Cl)cc1)S(=O)(=O)c1cccc(C(=O)OCC(=O)N(C)C)c1,i,-9.2%
CCN1C(=O)c2ccccc2S(=O)c2ccc(C(=O)N3CCN(c4cccc(C)c4)C(C)C3)cc21 (configuration not stated),-25.6%,-16.4%
Cc1ccn2cc(-c3cccc([N+](=O)[O-])c3)nc2c1,-12.0%,-10.0%
CCOc1ccccc1CNC(=O)CCCn1ccc2cc(S(=O)(=O)N3CCCC3)ccc21,-5.7%,-25.6%
COc1cc(/C=C/C(=O)OCC(=O)c2ccc(S(=O)(=O)N3CCCCC3)cc2)cc(OC)c1OC,-8.6%,-4.5%
Cc1c(C(=O)O)cc(C(C)(C)C)n1CCSCCO,-27.9%[7.34 µM],-4.7%[7.34 µM]
Cc1cc(Cl)ccc1C(=O)C1CCCN(C(=O)CN2CCOC2=O)C1 (configuration not stated),-13.8%,-6.3%
Cc1ccc(NC(=S)NNC(=O)c2nn(C)cc2Cl)cc1,-13.2%,-2.0%
NS(=O)(=O)c1ccc(Cl)c(S(N)(=O)=O)c1,i,-9.0%
Cc1cc(C)nc(NS(=O)(=O)c2ccc(NC(=O)Cc3ccccc3)cc2)n1,-3.1%,7.9%
COc1ccc(CNC(=O)C(=O)NCC(c2cccs2)S(=O)(=O)c2cccs2)cc1 (configuration not stated),-11.2%,-9.0%
Cc1nn(Cc2ccccc2)c(Cl)c1C(=O)NCCc1ccc(Cl)cc1,-5.0%,-7.6%
Cc1c(C(=O)NCc2cccc(Cl)c2)sc2nc3n(c(=O)c12)CCC3,-13.7%,-10.9%
Cc1nccn1CC(=O)N/N=C/c1c[nH]c2ccccc12,-3.1%[7.34 µM],-18.1%[7.34 µM]
CCOCCn1c(CN2CCN(C(=O)c3ccco3)CC2)nc2c1c(=O)n(C)c(=O)n2C,-3.2%,1.7%
NC(=O)c1cc([N+](=O)[O-])ccc1NCc1ccc(C(=O)O)cc1,-16.4%,-8.5%
CCOc1ccc(C2NC(=O)C(C#N)=C(S)N2c2cccc(C)c2)cc1OC (configuration not stated),-13.1%,1.4%
COc1ccc(N2CCN(C(CNC(=O)c3cccc(Cl)c3)c3cccnc3)CC2)cc1 (configuration not stated),.,-17.0%
C=CCOc1ccc(C2OC34CCCCC3C(C#N)(C#N)C2(C#N)C(=N)O4)cc1 (configuration not stated),-5.3%,2.3%
O=C(CN1C(=O)c2ccccc2S1(=O)=O)N1CCN(Cc2ccc3c(c2)OCO3)CC1,-6.6%,-1.5%
COc1cccc(Nc2n[nH]c(=S)s2)c1,-9.7%,-7.9%

# Bioassay records from PubChem BioAssay.
